GRP78 ERSR act: ER stress response induction in glioma. U87-MG GRP78 promoter luciferase reporter, 16 h. Potency, µM, without a hit: top-dose activation, hits mostly activators. 420,000 compounds, 0.02% hits. AID 602332; note: potency is the fitted concentration of half-maximal effect; series mostly up to about 76 µM; % of control where 0% means no effect; nearly all actives have a fitted effect of over 35% in size
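ERSR induction read as luciferase luminescence (Bright-Glo, 10 min at room temperature) in stably transfected human U87-MG glioma cells exposed to compounds for 16 h, using GRP78 as sensor.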
APEX1 inh: inhibitors of human APE1 endonuclease; P27695; recombinant APE1, TAMRA/BHQ-2 abasic DNA cleavage fluorescence; Potency, µM (titrated, usually from 65.8 µM), inactives show at the highest dose activity change, negative = inhibition, hits mostly inhibitors; 350,000 compounds, 0.35% hits;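 note: potency is the fitted concentration of half-maximal effect; plate controls were vehicle for no effect and reference inhibitor for full effect; nearly all actives have a fitted effect of over 55% in size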
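Enzyme (0.75 nM final) and test compound are incubated 15 min at room temperature before adding 50 nM quenched THF abasic-site duplex. Cleavage dequenches TAMRA, followed at 525/598 nm over three reads one minute apart.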
LDHA inh: inhibitors of human lactate dehydrogenase A | P00338 | purified LDHA, NADH/diaphorase-resazurin fluorescence; hits give low values | activity change, % (values are at about 110 or 230 µM) | 480,000 compounds, 0.15% hits | AID 1347041; in the data active = activity change below about -30%; inconclusive = mostly about -25% to -30%;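 note: plate controls were DMSO wells for no effect and wells without enzyme for full effect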
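Human LDH5 at 2 nM final in Tris HCl pH 7.4 with 0.06 mM NADH and 0.2 mM pyruvate, reacted 5 minutes at room temperature. Remaining NADH coupled via diaphorase/resazurin; resorufin fluorescence read at 0 and 20 minutes, normalized to enzyme-free and DMSO wells.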
BLM inh: blocks DNA unwinding by human BLM helicase. AID 2528. recombinant BLM DNA unwinding, fluorescence dequenching. 350,000 compounds, 0.2% hits. Potency, µM (top dose mostly 56.1 µM), without a hit: at the top dose activity change, negative = inhibition, usual class: inhibitors. P54132;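 note: potency is the fitted concentration of half-maximal effect; plate controls were vehicle for no effect and no enzyme for full effect; nearly all actives have a fitted effect of over 35% in size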
POLK inh: DNA polymerase kappa (human) inhibition. Q9UBT6. purified Pol kappa, fluorescent DNA synthesis assay, 10 min. Potency, µM (highest dose often 107 µM), for inactives: at the top dose activity, negative = inhibition, most hits filed as inhibitors. 400,000 compounds, 0.53% hits. AID 588579; note: potency is the fitted concentration of half-maximal effect; % is set by controls: 0 for no effect and ±100 for the full control effect
Target sequence (Q9UBT6 whole entry, looked up): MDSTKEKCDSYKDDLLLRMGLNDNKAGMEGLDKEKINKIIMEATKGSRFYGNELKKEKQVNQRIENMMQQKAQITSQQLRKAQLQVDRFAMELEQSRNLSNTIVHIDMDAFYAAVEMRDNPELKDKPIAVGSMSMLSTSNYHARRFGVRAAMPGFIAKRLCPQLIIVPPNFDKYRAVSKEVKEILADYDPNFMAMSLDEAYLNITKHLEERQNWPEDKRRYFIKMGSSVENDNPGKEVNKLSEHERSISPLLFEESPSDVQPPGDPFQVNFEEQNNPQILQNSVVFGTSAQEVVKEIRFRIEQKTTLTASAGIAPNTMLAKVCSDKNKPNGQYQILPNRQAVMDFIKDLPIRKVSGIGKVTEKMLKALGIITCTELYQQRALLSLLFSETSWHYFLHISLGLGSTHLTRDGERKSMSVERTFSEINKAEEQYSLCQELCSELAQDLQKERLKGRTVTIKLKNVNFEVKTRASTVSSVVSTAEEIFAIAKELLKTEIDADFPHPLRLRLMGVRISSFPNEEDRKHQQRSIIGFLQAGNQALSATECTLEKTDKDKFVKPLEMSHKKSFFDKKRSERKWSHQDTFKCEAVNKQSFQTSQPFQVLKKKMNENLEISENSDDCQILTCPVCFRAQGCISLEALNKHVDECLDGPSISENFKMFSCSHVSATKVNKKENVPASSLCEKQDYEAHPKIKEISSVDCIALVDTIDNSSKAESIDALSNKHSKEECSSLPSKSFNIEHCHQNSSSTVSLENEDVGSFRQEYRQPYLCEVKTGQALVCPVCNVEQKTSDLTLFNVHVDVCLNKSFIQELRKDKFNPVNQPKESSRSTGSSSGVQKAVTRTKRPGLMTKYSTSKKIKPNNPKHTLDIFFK
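Readout: fluorescence, taken kinetically at 0 and 10 min. Conditions: 10 nM Pol kappa, 15 min RT compound preincubation, 50 nM substrate final. Controls: enzyme-free buffer wells.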
* marks the source's active call; other numbers are inactive results; ? = inconclusive; / = no result given; & = joins results of further samples; [ ] = dose if it differs, or a comment. Unless noted, calls come from the whole dose curve; as a rule, active = well fitted curve in the direction sought with a large enough effect; inconclusive = small, poorly fitted or top-dose-only effect, or another doubt; inactive = no such curve, though single readings can be large; an effect the other way counts as inactive or inconclusive.

SMILES	GRP78 ERSR act	APEX1 inh	LDHA inh	BLM inh	POLK inh
O=c1[nH]cnc2c1ncn2C1CCC(CO)O1 (stereo not given)	0%	/	-3	/	/
COc1ccc([C@H]2Sc3ccccc3N(CCN(C)C)C(=O)[C@H]2OC(C)=O)cc1	-3%	-3%[21 µM]	/	1%[21.4 µM]	-3%[12 µM]
CCN(CC)CC#CCOC(=O)[C@@](O)(c1ccccc1)C1CCCCC1	-3%	/	/	2%[21.4 µM]	-6%[12 µM]
O=C(O)[C@@H]1CCCN1	-1%	/	/	7%	-5%[60.1 µM]
CC(=O)Nc1c(I)c(NC(C)=O)c(I)c(C(=O)O)c1I	-1%&-3%&-5%	14%&6%&19%	-7&-2	-2%&-3%	11%&8%
COc1ccc(C2Sc3ccccc3N(CCN(C)C)C(=O)[C@@H]2OC(C)=O)cc1 (stereo not given in full)	-3%&-2%	4%&0%	/	/	0%&-8%[19.4 µM]
Nc1ccn(C2OC(CO)C(O)C2O)c(=O)n1 (stereo not given)	-2%&-5%	2%&22%	/	4%&4%	-4%&-2%[60.1 µM]
O=C(O)[C@H]1CCCN1	3%&-3%	-7%&0%	/	1%	14%[60.1 µM]
CCOc1ccc(-n2ccc(=O)c(C(=O)Nc3ccc(S(=O)(=O)Nc4nccs4)cc3)n2)cc1	-2%	55%[activator]	-21	-23%	?
CCCCn1c(N)c(N(CCC(C)C)C(=O)c2cc(-c3ccco3)nc3ccccc23)c(=O)[nH]c1=O	-2%	-38%	-10	-22%	-40%
CN(CC(=O)Nc1c(Cl)cccc1Cl)C(=O)CCc1nc2sc3c(c2c(=O)[nH]1)CCCC3	-2%	-18%	-6	/	0%
COc1ccc(NC(=O)CN(C)C(=O)Cc2ccc(S(=O)(=O)N3CCOCC3)s2)cc1	-1%	-16%	2	/	-28%
N=C(N)c1ccc(/C=C/c2ccc(C(=N)N)cc2O)cc1	-5%&-5%&-2%	?	-8&-1	240%&145%[activator]	?
O=C(O)C1CCCN1 (stereo not given)	-5%	-5%	/	1%	11%[60.1 µM]
C/C(O)=c1/c(=O)nc2cccc3c2=c1c1ccccc1c3=O	0%	-12%	-2	0%	0%
O=C(CCS(=O)(=O)c1ccc(Br)cc1)N1CCCCCC1	-1%	4%	3	-2%	8%
CC1CC2C3CCC4=CC(=O)C=C[C@]4(C)[C@@]3(F)[C@@H](O)C[C@]2(C)[C@@]1(O)C(=O)CO (stereo not given in full)	-4%	/	/	/	6%[60.1 µM]
Cc1cccc(C)c1OCC(C)N (stereo not given)	2%&-5%&-2%&-2%&-7%	-1%&2%&2%&-5%	-8	3%&-13%&-9%&1%	4%[60.1 µM]
C[C@@H]1C[C@@H]2[C@H]3CCC4=CC(=O)C=C[C@]4(C)[C@]3(F)[C@@H](O)C[C@@]2(C)[C@@]1(O)C(=O)CO	0%	-6%	/	1%	-8%[19.4 µM]
O=C(N[C@@H](CO)[C@@H](O)c1ccc([N+](=O)[O-])cc1)C(Cl)Cl	-3%	-1%[21 µM]	/	-5%[21.4 µM]	0%[12 µM]
CC(C)NC[C@H](O)c1ccc(O)c(O)c1	-2%&-3%&0%&-1%&-5%&-3%	?	8	-18%	-2%[60.1 µM]
O=C(/C=C/c1ccco1)N1CCCC(c2ccccc2)C1 (stereo not given)	5%	-15%	1	-18%	?
CC1=C(CC(=O)O)c2cc(F)ccc2/C1=C\c1ccc(S(C)=O)cc1 (stereo not given)	-6%&-3%&-4%&5%&-5%	-2%	-2	?	-13%[60.1 µM]
COc1ccc(CC(=O)Nc2ncc([N+](=O)[O-])s2)cc1OC	-1%	6%	3	-3%	-27%
N#C/C(=C\c1ccc(-c2ccccc2[N+](=O)[O-])o1)C(=O)Nc1nc(-c2cccs2)cs1	2%	4%	5	?	-21%

Some of the entries above, reformatted.
Values run as follows: GRP78 ERSR act | APEX1 inh | LDHA inh | BLM inh | POLK inh
Cc1cccc(C)c1OCC(C)N (stereo not given)
    2%&-5%&-2%&-2%&-7% | -1%&2%&2%&-5% | -8 | 3%&-13%&-9%&1% | 4%[60.1 µM]
C[C@@H]1C[C@@H]2[C@H]3CCC4=CC(=O)C=C[C@]4(C)[C@]3(F)[C@@H](O)C[C@@]2(C)[C@@]1(O)C(=O)CO
    0% | -6% | / | 1% | -8%[19.4 µM]
O=C(N[C@@H](CO)[C@@H](O)c1ccc([N+](=O)[O-])cc1)C(Cl)Cl
    -3% | -1%[21 µM] | / | -5%[21.4 µM] | 0%[12 µM]
CC(C)NC[C@H](O)c1ccc(O)c(O)c1
    -2%&-3%&0%&-1%&-5%&-3% | ? | 8 | -18% | -2%[60.1 µM]

Compound profiles, as listed above.
O=C(N[C@@H](CO)[C@@H](O)c1ccc([N+](=O)[O-])cc1)C(Cl)Cl as listed: GRP78 ERSR act: -3%; APEX1 inh: -1%[21 µM]; LDHA inh: /; BLM inh: -5%[21.4 µM]; POLK inh: 0%[12 µM]
Cc1cccc(C)c1OCC(C)N (stereo not given) as listed: GRP78 ERSR act: 2%&-5%&-2%&-2%&-7%; APEX1 inh: -1%&2%&2%&-5%; LDHA inh: -8; BLM inh: 3%&-13%&-9%&1%; POLK inh: 4%[60.1 µM]

Quoted from the listing:
Entry of COc1ccc(CC(=O)Nc2ncc([N+](=O)[O-])s2)cc1OC in LDHA inh: 3
Entry of O=C(CCS(=O)(=O)c1ccc(Br)cc1)N1CCCCCC1 in APEX1 inh: 4%
Entry of O=C(O)[C@@H]1CCCN1 in POLK inh: -5%[60.1 µM]
Entry of CC1CC2C3CCC4=CC(=O)C=C[C@]4(C)[C@@]3(F)[C@@H](O)C[C@]2(C)[C@@]1(O)C(=O)CO (stereo not given in full) in GRP78 ERSR act: -4%
Entry of N=C(N)c1ccc(/C=C/c2ccc(C(=N)N)cc2O)cc1 in BLM inh: 240%&145%[activator]
Entry of CN(CC(=O)Nc1c(Cl)cccc1Cl)C(=O)CCc1nc2sc3c(c2c(=O)[nH]1)CCCC3 in APEX1 inh: -18%

A portion of the library (hit frequency here may not be typical).
